GCN5L2 inh – qHTS Assay for Inhibitors of GCN5L2; GCN5L2 HAT assay, ThioGlo1 CoA-SH fluorescence; Potency, µM (highest dose often 58.9 µM), without a hit: at the top dose activity change, negative = inhibition, actives largely listed as inhibitors; Histone acetyltransferase KAT2A (Homo sapiens), Q92830; 390,000 compounds, 0.21% hits; active = well fitted inhibition curve with a large enough effect
Target sequence (Q92830 whole entry, looked up): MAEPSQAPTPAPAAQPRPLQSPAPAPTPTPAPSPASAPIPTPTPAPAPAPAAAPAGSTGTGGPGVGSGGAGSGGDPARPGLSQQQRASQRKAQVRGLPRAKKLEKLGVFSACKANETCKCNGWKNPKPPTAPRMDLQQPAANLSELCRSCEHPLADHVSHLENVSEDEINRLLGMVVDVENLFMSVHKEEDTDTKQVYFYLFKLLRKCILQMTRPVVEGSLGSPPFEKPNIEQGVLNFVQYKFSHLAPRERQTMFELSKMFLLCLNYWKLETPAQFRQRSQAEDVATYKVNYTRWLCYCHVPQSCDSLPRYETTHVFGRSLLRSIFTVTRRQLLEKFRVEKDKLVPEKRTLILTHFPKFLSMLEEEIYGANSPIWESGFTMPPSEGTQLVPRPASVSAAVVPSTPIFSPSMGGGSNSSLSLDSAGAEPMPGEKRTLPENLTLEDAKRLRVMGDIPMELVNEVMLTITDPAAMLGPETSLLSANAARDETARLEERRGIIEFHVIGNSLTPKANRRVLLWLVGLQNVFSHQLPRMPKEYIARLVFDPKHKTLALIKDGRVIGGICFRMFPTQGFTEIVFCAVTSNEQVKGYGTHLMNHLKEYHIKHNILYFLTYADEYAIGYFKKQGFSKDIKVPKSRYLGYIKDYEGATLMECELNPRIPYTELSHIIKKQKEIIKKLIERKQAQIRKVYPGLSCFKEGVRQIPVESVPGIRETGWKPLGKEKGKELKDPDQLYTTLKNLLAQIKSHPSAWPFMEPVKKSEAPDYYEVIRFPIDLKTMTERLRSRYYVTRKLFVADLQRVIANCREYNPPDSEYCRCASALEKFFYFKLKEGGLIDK
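GCN5L2 (20 nM) in 50mM HEPES pH 7.5, 0.1mM EDTA, 0.01% Tween-20 preincubated 15 min with compounds at room temperature. Reaction started with H3(1-25) 75uM, acetyl-CoA 70uM, ThioGlo1 50uM; CoA-thiol fluorescence (Ex340/Em540) read at 0 and 20 min.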
* = called active by the depositor; & = joins results of further samples. % is set by controls: 0 for no effect and ±100 for the full control effect; potency is the fitted concentration of half-maximal effect. Not all compounds are listed, and most or all hits are left out here.

structure	GCN5L2 inh
CCOc1ccc(N=C2SC(C(=O)O)CC(=O)N2C)cc1 (stereo unspecified)	-7%
Cc1cccc(N2CC(C(=O)O)CC2=O)c1 (stereo unspecified)	-4%
CCS(=O)(=O)Nc1ccc(-c2cn3ccsc3n2)cc1	-4%
Cc1nn(C)c(Cl)c1C(=O)NCC(=O)NCc1ccccc1	-3%
CC1C(=O)O[C@@H]2C[C@@H](C)[C@@H]3CCC(=O)[C@@]3(C)[C@@H](O)[C@H]12 (stereo partly specified)	0%
O=C(CCN1C(=O)S/C(=C/c2ccccc2)C1=O)Nc1ccc(C(=O)O)c(O)c1	-6%
COC(=O)c1ccccc1NC(=O)C1CC(=O)N(c2ccccc2)C1 (stereo unspecified)	-2%
Cc1ccc(-n2nnc3ccccc3c2=O)cc1C	-9%
O=C1CCC(=O)N1CCc1c[nH]c2ccccc12	3%
COc1ccc(C(=O)OCCCOC(=O)c2ccc(OC)cc2OC)c(OC)c1	1%
CCOC(=O)C1=C(CC)Nc2ccccc2N=C1NC(=O)c1cc(S(=O)(=O)N(C)C)ccc1Cl	-7%
CN(C)Cc1cnc2ccc(Cl)cn12	-9%
CC(C)NC(=O)c1cc2c(C(F)(F)F)nn(C)c2s1	-5%
CC(=O)Nc1ccc(NC(=O)C2Cc3ccccc3N2C(=O)c2ccccc2)cc1 (stereo unspecified)	0%
CCOC(=O)Cc1csc(NC(=O)c2csc(C)c2)n1	-1%
O=C(NCc1n[nH]c(=S)n1-c1ccc(Cl)c(Cl)c1)c1cccs1	-6%
CN(C)CCCn1c(N)c(C#N)c2nc(C#N)c(C#N)nc21	-24%
O=C(NCC1CCCO1)C1CCCN1C(=O)NC1CCCCC1 (stereo unspecified)	1%
CCN(CC(=O)Nc1ccc(C)c(F)c1)CC(=O)NC(C)(C)C	-4%
COc1ccc(C)cc1NC(=O)c1cnc2ccc(C)cn2c1=O	1%
CCOC(=O)c1c(NC(=O)c2cc(=O)c3cc(C)ccc3o2)sc2c1CCCC2	-10%
COc1ccc(C)cc1S(=O)(=O)N(C)CC(=O)N1CCC(C(N)=O)CC1	-3%
COc1ccc(Nc2cc(C(=O)NCc3ccccc3)c3ccccc3n2)c(OC)c1	-12%
CCCn1c(N2CCN(CC(=O)c3c[nH]c4ccccc34)CC2)nc2c1c(=O)[nH]c(=O)n2C	-14%
COc1ccc2c(c1)[C@H]1[C@H](CO2)[C@H](c2ccccc2)[C@]2(C)C(=O)Nc3cc(C)ccc3C(=O)N12	1%
COC12NC(=O)N(C)C1(OC)C(=O)N(C)C(=O)N2C (stereo unspecified)	-3%
Cc1ccc(CN2CCN(C3CCN(C(=O)Nc4ccccc4C(F)(F)F)CC3)C(=O)C2=O)cc1	-5%
CCC(C)NC(=O)c1cn(CC)c2cc(N3CCN(C)CC3)c(F)cc2c1=O (stereo unspecified)	1%
COC(=O)c1cccc(NC(=O)CSc2nnc(C3CC3)n2C)c1	-2%
O=C(NNC(=O)c1cc(Cl)ccc1O)c1cccs1	-2%
O=C(NC1CCCCC1)N1CCC(n2cnc3ccccc32)CC1	-4%
CCN(CC)c1ccc(/C=N/OC(C)C(=O)Nc2ccc(C)cc2)cc1 (stereo unspecified)	-7%
O=C(NCc1ccccn1)c1cnc2sccn2c1=O	4%
Cc1oc(CC(C)C)cc1C(=O)NCCCC(=O)O	-1%
CCc1nnc(NC(=O)C2CCN(c3nc(C)cc(C)n3)CC2)s1	-2%
O=C(NC1CC1)c1c[nH]c2ccc(S(=O)(=O)Nc3cccc(C(F)(F)F)c3)cc2c1=O	-2%
Cc1cccc(-c2nc3c(c(SCC(=O)N4CCOCC4)n2)CCCC3)c1	1%
CCO[C@H]1OC(C(=O)NC2CC2)=C[C@@H](C)[C@@H]1CCCO	-4%
O=C1CC(=O)C(n2cncn2)C(c2ccc(Cl)cc2Cl)C1 (stereo unspecified)	-1%
O=C1CC[C@H](O)CCN1CCSc1ccc(Br)cc1	-3%
COc1cccc2sc(N(CCCN(C)C)C(=O)CCS(=O)(=O)c3ccccc3)nc12	-1%
CC(Oc1ccccc1)C(=O)Nc1cccc(F)c1 (stereo unspecified)	-3%
COc1ccc(NC(=O)c2ccc(C)cc2)c(OC)c1	0%
Cc1ccc(OCC(=O)Nc2cccc(S(=O)(=O)N3CCCCCC3)c2)cc1C	-10%
COC(=O)Cn1c(=O)c(C(=O)CCl)c(N)n(Cc2ccccc2)c1=O	4%
Cc1ncc(CO)c2cc(C(N)=O)c(=Nc3ccccc3)oc12	-8%
COc1ccc(NC(=O)CSc2nc(-c3ccco3)cc(C(F)(F)F)n2)cc1Cl	-5%
COc1ccc(Cn2nnnc2CN2CCOCC2)cc1	-4%
c1ccc2c(NCC3CCCO3)nc(N3CCCCC3)nc2c1 (stereo unspecified)	-3%
C=C(C)C1CC=C(C)/C(=N/NC(=O)c2cccc([N+](=O)[O-])c2)C1 (stereo unspecified)	-1%
O=C(Nc1ccccc1C(=O)NCC1CCCO1)c1ccccc1 (stereo unspecified)	-3%
COc1ccc(N2C(=O)CC(NNC(=O)c3ccco3)C2=O)cc1 (stereo unspecified)	-6%
O=S(=O)(NCc1csc(-c2cccnc2)n1)c1ccc(Cl)s1	-5%
Cc1cccc(Cl)c1OCCCCn1ccnc1	1%
Cc1[nH]c(=O)[nH]c(=O)c1S(=O)(=O)NCCOC12CC3CC(CC(C3)C1)C2	-2%
COc1ccc(Cn2c(O)c(C=Nc3ccc(O)cc3)c3ccccc3c2=O)cc1	-4%

The results go on.
structure	GCN5L2 inh
O=C(O)CCC(=O)/C=C/c1ccccc1	-14%
CCCS(=O)(=O)N1CCCC(C(=O)NCCN2CCOCC2)C1 (stereo unspecified)	-2%
CCn1cc(C(=O)NCCCN2CCCC(C)C2)c(=O)c2cc(S(=O)(=O)N(C)C3CCCCC3)ccc21 (stereo unspecified)	-6%&-3%
CCN(CC)c1ccc(S(=O)(=O)N2CCOCC2)cc1NC(=O)CSc1nnc(N)s1	-4%
Cc1ccc(NC(NC(=O)c2ccccc2[N+](=O)[O-])C(Cl)(Cl)Cl)cc1 (stereo unspecified)	-4%
O=C(COc1cccc(F)c1)Nc1ccc2[nH]c(=O)[nH]c2c1	-6%
COC(=O)C1(C#N)C(c2ccccc2)C1(C(=O)OC)C(=O)OC (stereo unspecified)	-17%
Cc1nn(-c2ccccc2)c(C)c1/C=C/C(=O)OCC(=O)Nc1ccc(S(N)(=O)=O)cc1	-8%
COc1ccccc1C(=O)n1nc(-c2ccccc2)nc1N	-4%
CCOC(=O)c1cc(CC)sc1NC(=O)CCC(=O)O	-2%
CC(=O)Oc1ccc(NC(=O)CCC2CCCCC2)c(C(=O)O)c1	-2%
Cc1ccc(F)c(C2C3C=CCC(c4cccc(-c5ccc(N(C)C)cc5)c4)C3C(=O)N2Cc2ccccc2)c1 (stereo unspecified)	-3%
Cc1ccc(S(=O)(=O)n2ccc(-c3cccc(OCc4c(F)cccc4Cl)c3)n2)cc1	-8%
COc1ccc(CNC(=O)CCS(=O)(=O)c2ccc3c(c2)oc(=O)n3C)cc1	-13%&29%
Cc1cc(C)c2nc(Nc3nc(-c4ccccc4)cc(=O)[nH]3)nc(C)c2c1	14%
O=C(c1nc2ccccn2c1CNCCCn1nnc2ccccc21)N1CCOCC1	1%

Some of these compounds in order of SMILES length, low to high:
structure	GCN5L2 inh
CCOC(=O)c1cc(CC)sc1NC(=O)CCC(=O)O	-2%
CC(=O)Oc1ccc(NC(=O)CCC2CCCCC2)c(C(=O)O)c1	-2%
COc1ccc(CNC(=O)CCS(=O)(=O)c2ccc3c(c2)oc(=O)n3C)cc1	-13%&29%

Arranged by value in GCN5L2 inh (largest number first): some entries from above
structure	GCN5L2 inh
O=C(NNC(=O)c1cc(Cl)ccc1O)c1cccs1	-2%
Cc1nn(C)c(Cl)c1C(=O)NCC(=O)NCc1ccccc1	-3%
Cc1ccc(NC(NC(=O)c2ccccc2[N+](=O)[O-])C(Cl)(Cl)Cl)cc1 (stereo unspecified)	-4%
O=S(=O)(NCc1csc(-c2cccnc2)n1)c1ccc(Cl)s1	-5%

(next part)
structure	GCN5L2 inh
O=C(O)C(Cc1ccccc1)NC(=O)C(c1ccccc1)c1ccccc1 (stereo unspecified)	-6%
Cc1nc(NC(C)(C)CO)c([N+](=O)[O-])cc1[N+](=O)[O-]	-4%
COc1ccc(C)cc1NC(=O)CC1NCCNC1=O (stereo unspecified)	0%
O=C(NCc1cccnc1)C1CCCN(S(=O)(=O)c2ccccc2)C1 (stereo unspecified)	-3%
Cc1nn(CCC(=O)N2CCN(c3ccccc3F)CC2)c(C)c1S(=O)(=O)N1CCCC1	3%
CSc1nncc(/C(C)=N\Nc2ccccc2C)n1	-4%
CCOC(=O)c1cccc(NS(=O)(=O)c2ccc(NC(C)=O)cc2)c1	-9%
Cc1ccc(NC(=O)C(c2ccccc2)N2CCN(CC(=O)NC3CC3)CC2)cc1 (stereo unspecified)	-2%

In another format: results already given.
Structure: CCN(CC)c1ccc(/C=N/OC(C)C(=O)Nc2ccc(C)cc2)cc1 (stereo unspecified)
  GCN5L2 inh: -7%
Structure: O=C(NCc1ccccn1)c1cnc2sccn2c1=O
  GCN5L2 inh: 4%
Structure: Cc1oc(CC(C)C)cc1C(=O)NCCCC(=O)O
  GCN5L2 inh: -1%
Structure: CCc1nnc(NC(=O)C2CCN(c3nc(C)cc(C)n3)CC2)s1
  GCN5L2 inh: -2%

Next part.
structure	GCN5L2 inh
Cc1ccc(C)c(NC(=O)CS(=O)(=O)c2cccc3nsnc23)c1	-1%
COc1cccc(NC(=O)Cn2cc3c(n2)CCCCC3)c1	-4%
Cc1cc(C)n(C(=O)CNC(=O)/C=C/c2ccccc2)n1	-1%
COc1ccc(OC(=O)c2c(C)nn(-c3ccccc3)c2C)cc1	1%
CC(=O)Nc1ccc(S(=O)(=O)NCCNS(=O)(=O)c2ccc(NC(C)=O)cc2)cc1	-4%
COc1ccc(NC(=O)CSc2nc(-c3ccc(F)cc3)[nH]c2-c2ccc(C)cc2)cc1OC	0%
Oc1c(C=C2N=c3ccccc3=N2)sc(=S)n1C1CCCCC1	-5%&25%
Cn1c(SCC(=O)NC2CCCc3ccccc32)nnc1C1CC1 (stereo unspecified)	0%
O=C(Nc1ccc(Cl)c(Cl)c1)c1ccccc1NC(=O)C1CC=CCC1C(=O)O (stereo unspecified)	-4%
Cc1ccc2c(c1)C(=O)CC1(CCC(C(C)(C)C)CC1)O2 (stereo unspecified)	-3%
CCOc1ccccc1NC(=O)CSc1nc2c([nH]c3ccccc32)c(=O)n1-c1ccccc1	3%
COc1ccccc1/C=C1\SC(=O)N(CCC(=O)N2CCCCC2CCO)C1=O (stereo unspecified)	-27%
Cc1ccc(/C=N/N2CCN(c3ccccn3)CC2)o1	-6%
COc1ccc(NC(=O)CN2CCCN(S(=O)(=O)c3ccc(F)cc3)CC2)c(OC)c1	-7%
Cc1cc(Cl)ccc1C(=O)C1CCCN(C(=O)c2ccc3ncccc3c2)C1 (stereo unspecified)	-1%
COc1cc2c(cc1OC)C(COc1ccc3c(C)cc(=O)oc3c1)N(C(=O)c1ccccc1C)CC2 (stereo unspecified)	-2%
CCOC(=O)COc1ncn(-c2ccccc2)n1	1%
CC1CCN(S(=O)(=O)c2cn(CC(=O)Nc3cccc(C#N)c3)cn2)CC1	-3%
O=C(Cn1c2[n+](c3ccc(C(F)(F)F)cc31)CCCCC2)c1cccc([N+](=O)[O-])c1	-13%
Cc1cc(C)nc(NS(=O)(=O)c2ccc(NC(=O)Nc3ccccc3F)cc2)n1	-1%
Cc1ccc(OCCn2nc3ccccc3n2)c(C)c1	-23%
COc1cc(OC)c(NC(=O)CCS(=O)(=O)c2ccc3c(c2)oc(=O)n3C)cc1Cl	25%
C=CCO/N=C(/C)c1ccc(Oc2cnccn2)cc1	-5%
CC(=O)c1cccc(OCC(O)CN2CCN(C(=O)c3ccco3)CC2)c1 (stereo unspecified)	-5%
CC(C)(C)C(=O)NC(=S)Nc1ccc(Cl)c(C(=O)O)c1	2%
Cc1c(C(=O)Nc2ccccc2N2CCN(C)CC2)oc2ccc(F)cc12	-9%
CO/N=C/CC(=O)c1cnc(-c2ccccc2)s1	-8%
CCOC(=O)C1CCN(C(=O)c2cccc(NS(=O)(=O)c3ccc(Br)cc3)c2)CC1	-10%
CCn1ccc(C(=O)N2CCOCC2)n1	-5%
COc1ccccc1CN1CCC(CNS(=O)(=O)c2cc(-c3cc(C)no3)ccc2OC)CC1	-7%
CCC(=O)OCC(=O)[C@@]1(OC(=O)CC)[C@@H](C)C[C@H]2[C@@H]3CCC4=CC(=O)C=C[C@]4(C)[C@@]3(F)[C@@H](O)C[C@@]21C	7%
CC1(C(=O)NC2CCCC2)CCC(=O)N1CCC1=CCCCC1 (stereo unspecified)	-15%
CC(C)c1ccc(OCc2ccc(C(=O)N3CCCC3)o2)cc1	-9%
O=C(C1=C(O)C(=O)N(CCCn2ccnc2)C1c1cccc(Br)c1)c1ccco1 (stereo unspecified)	1%

Screens as filed in PubChem.
